High-throughput results from PubChem.
Vaccinia mCherry: vaccinia inhibition (mCherry reporter); Vaccinia virus mCherry reporter infection, fluorescence; about a quarter of the inactives have no number; Potency, µM (highest dose often 36.5 µM), inactives show at the top dose activity change, negative = inhibition, usual class: inhibitors; actives 0.63% (n = 310,000); AID 720579; active = well fitted inhibition curve with a large enough effect; inconclusive = small, poorly fitted or top-dose-only effect; inactive = no such curve, though single readings can be large or run the other way; tested in A549 cells; also: nearly all actives have a fitted effect of over 35% in size; inactives centre near -10
VACV Venus inh: inhibitors of vaccinia virus (Venus reporter); Vaccinia virus Venus reporter expression, fluorescence; Potency, µM (highest dose often 36.5 µM), without a hit: at the top dose activity change, negative = inhibition, hits mostly inhibitors; actives 0.46% (n = 330,000); AID 720580; active means well fitted inhibition curve with a large enough effect; inconclusive means small, poorly fitted or top-dose-only effect; inactive means no such curve, though single readings can be large or run the other way; tested in A549 cells; also: nearly all actives have a fitted effect of over 30% in size; inactives centre near -10
Active calls of the source: *; i = inactive; ? = inconclusive; . = no result given; & = joins results of further samples; [ ] = dose if it differs, or a comment. % is scaled to controls: 0 for no effect and ±100 for the full control effect; potency is read from the fitted curve at half-maximal effect.

Screens in order: Vaccinia mCherry | VACV Venus inh
> CC1CN(c2ncnc3c2oc2ccccc23)CC(C)O1 (stereo not drawn)
    . | 6%
> CCN(CC)c1ccc(/C=N/NS(=O)(=O)c2ccc(CNC(C)=O)cc2)cc1
    -14% | 6%
> O=C(CSc1nnnn1-c1ccccc1)Nc1ccc(N2CCOCC2)c(Cl)c1
    -24% | -13%
> CC[C@@H](C)[C@H](N)C(=O)NC[C@H]1O[C@@H](n2cnc3c(N)ncnc32)[C@H](O)[C@@H]1O
    i | -1%
> CC(C)(C)c1ccc(NC(=O)C2CCCN(c3cnccn3)C2)cc1 (stereo not drawn)
    -18% | -11%
> O=c1c(OC2OC(CO)C(O)C(O)C2O)c(-c2ccc(O)c(O)c2)oc2cc(O)cc(O)c12 (stereo not drawn)
    i | 0%
> COc1ccccc1N1CCN(S(=O)(=O)c2c[nH]c(=O)[nH]c2=O)CC1
    -13% | -4%
> CC(C)CNC(=O)NC1(C(F)(F)F)Oc2ccccc2O1
    -8% | -14%
> O=C(NCc1cccnc1)c1ccc2c(c1)C(=O)N(Cc1ccccc1)C2=O
    -11% | -13%
> O=C(Nc1ccc(Cl)c(Cl)c1)Nc1nnc(-c2ccncc2)s1
    -27% | -19%
> COc1ccc(NC(=O)c2cc(C3CCCCN3C(=O)C3CCCCC3)on2)c(C)c1 (stereo not drawn)
    i | -28%
> C[C@H]1CN([C@@H](C)CO)C(=O)c2cccc(NC(=O)C3CC3)c2O[C@H]1CN(C)CC1CCCCC1
    i | 5%
> CC(=O)Nc1ccc(S(=O)(=O)N2CCC(N(C)CCC(C)C)CC2)cc1
    -16% | -6%
> COC(=O)c1sccc1NC(=O)c1c(C)c(-c2cccc(Cl)c2)nc2ccccc12
    -3% | -2%
> O=C(/C=C\c1ccco1)c1ccc(NC(=O)c2ccco2)cc1
    -2% | -20%
> COc1cc2c(cc1OC)-c1cc(Nc3cccc(F)c3)nc(=O)n1CC2
    -2% | -18%
> C#C[C@]1(O)CC[C@H]2[C@@H]3CCC4=C(CCC(=O)C4)[C@H]3CC[C@@]21C
    0% | -14%
> Cc1ccsc1C1Nc2ccc3ncccc3c2C2=C1C(=O)CC(C)(C)C2 (stereo not drawn)
    ? | ?
> O=S(=O)(Nc1nc2ccccc2nc1N1CCc2ccccc2C1)c1ccc(Br)cc1
    -15% | -6%
> Cc1nn(-c2ccc(Cl)cc2)c2sc(C(=O)N3CCN(c4ccccn4)CC3)cc12
    . | 6%
> COc1ccc(CCN2CC(C(=O)OCC(=O)NC(C)c3cccc(Cl)c3)CC2=O)cc1OC (stereo not drawn)
    -18% | -11%
> CCn1ncc([N+](=O)[O-])c1C(=O)Nc1ccc(C(=O)N2CCCCC2)cc1
    -17% | -8%
> Cc1cc(S(=O)(=O)N2CCCOC2CNC(=O)C(=O)NCc2cccs2)ccc1F (stereo not drawn)
    ? | -25%
> COc1cnn(-c2ccccc2)c(=O)c1OC
    -10% | -8%
> Cc1nc(CS(=O)(=O)c2ccc(Cl)cc2)cc(Sc2ccccc2Cl)n1
    . | -22%
> Cn1cc([N+](=O)[O-])c(C(=O)N/N=C\c2c[nH]c3ccccc23)n1
    ? | ?
> Cc1ccc(C(=O)Nc2ccc3c(c2)N(C)C(=O)c2ccccc2S3)cc1F
    ? | ?
> O=c1cc(N2CCCCC2)c(-c2ccccc2)nn1Cc1ccc(Cl)cc1
    . | -22%
> CCOc1ccc2oc(=O)cc(CN3CCOCC3)c2c1
    i | -10%
> CC1CCN(S(=O)(=O)c2ccc3c(ccc(=O)n3CC(=O)NCc3ccc(Cl)cc3)c2)CC1
    -15% | -10%

Ordered by length of the SMILES (falling): 3 of the compounds above
Screens in order: Vaccinia mCherry | VACV Venus inh
> O=C(NCc1cccnc1)c1ccc2c(c1)C(=O)N(Cc1ccccc1)C2=O
    -11% | -13%
> CC(C)(C)c1ccc(NC(=O)C2CCCN(c3cnccn3)C2)cc1 (stereo not drawn)
    -18% | -11%
> CCOc1ccc2oc(=O)cc(CN3CCOCC3)c2c1
    i | -10%

The listing continues:
Screens in order: Vaccinia mCherry | VACV Venus inh
> CCOC(=O)C1CCN(C(=O)COc2ccc(S(=O)(=O)N3CCOCC3)cc2)CC1
    -18% | -4%
> COc1ccc(-c2oc3ncn(Cc4ccco4)c(=N)c3c2-c2ccc(OC)cc2)cc1
    . | -29%
> CCCCCCCC(=O)NNC(=O)c1c(O)c2ccccc2n(CC)c1=O
    -9% | -10%
> COc1ccc(C(=O)Nc2ccc(N3CCC(C)CC3)cc2)cc1Br
    i | -9%
> CNCC(C)c1ccccc1 (stereo not drawn)
    i | -3%
> CC(C)CNC(=O)C1(C)CCCN1C(=O)Cc1cccc2ccccc12 (stereo not drawn)
    16% | -14%
> CCCCC(=O)c1ccc(O)cc1
    -11% | -23%
> O=C(Nc1ccccc1SCC1CSc2nc3ccccc3c(=O)n21)c1cccc(Cl)c1 (stereo not drawn)
    . | -30%
> Cn1c(=O)cc(OCCCC(=O)NCc2ccc(F)cc2Cl)c2ccccc21
    -8% | 2%
> Cc1ccc(CCNC(=O)c2ccc(CSc3nc4ccncc4n3Cc3ccc(F)cc3)cc2)cc1
    -14% | -21%
> CC(OC(=O)Cn1cnc2ccccc2c1=O)C(=O)N(C)c1ccccc1 (stereo not drawn)
    i | -7%
> NC/C(=N\O)c1ccc(Cl)cc1Cl
    -5% | -4%
> O=C(OC1CCOC1=O)c1ccc(Cl)c(S(=O)(=O)N2CCCCC2)c1 (stereo not drawn)
    -1% | -18%
> COc1ccc(OC)c(NC(=O)CC2SC(=N)N(c3ccccc3)C2=O)c1 (stereo not drawn)
    -14% | -6%
> COc1ccc(CN(C)CC(=O)NCC(=O)Nc2c(C)cccc2C)cc1
    -17% | -6%
> CC(C)n1ncc2c(C(=O)Nc3cccc(S(=O)(=O)N(C)C)c3)cc(C3CC3)nc21
    -17% | -24%
> Fc1ccc(CO/N=C2\CCCc3nonc32)cc1
    -10% | -1%
> O=C(Cn1nc2c(cc1=O)CCCC2)NCc1ccccc1Cl
    -19%[7.34 µM] | -1%[7.34 µM]
> COc1ccccc1NC(=O)CCc1c(C)[nH]c(=O)c(C#N)c1C
    . | ?
> O=C(NC(=S)N1CCCCC1CO)c1cccs1 (stereo not drawn)
    -2% | -16%
> CC(=O)c1cccc(N(C(=O)CNC(=O)c2ccco2)C(C(=O)NC2CCCC2)c2ccncc2)c1 (stereo not drawn)
    i | -11%
> COc1c(O)c(=O)n2c3ccccc3c3ccnc1c32
    4% | -1%
> C=CCc1cccc(/C=N/NC(=O)CCCNc2ccc(C)cc2)c1O
    13µM* | ?
> CSc1nnc2c(n1)OC(c1cccc(O)c1Cl)Nc1ccccc1-2 (stereo not drawn)
    -1% | 9%
> CCOc1ccc(S(=O)(=O)NCCC(=O)N2CCN(c3ccc(OC)cc3)CC2)cc1
    -21% | -8%
> O=C(NC(c1ccc2c(c1)OCO2)c1ccccn1)C1CCN(CCOc2ccc(Cl)cc2Cl)CC1 (stereo not drawn)
    i | -10%
> Cc1ccc(S(=O)(=O)Nc2ccccc2F)cc1C(=O)NNC(=O)c1ccccc1O
    ? | 4%
> O=c1c2c(-c3ccccc3)ccnc2[nH]n1-c1ccccc1
    -11%&3% | -3%&4%
> O=c1[nH]c(=S)[nH]c2sccc12
    -1% | -18%
> Cc1cccc(N2N=C(C(=O)Nc3ccc(Cl)c(S(=O)(=O)N4CCOCC4)c3)CCC2=O)c1
    -26% | -17%

Nothing new here: entries from further up.
Screens in order: Vaccinia mCherry | VACV Venus inh
> CC(C)(C)c1ccc(NC(=O)C2CCCN(c3cnccn3)C2)cc1 (stereo not drawn)
    -18% | -11%
> O=c1c(OC2OC(CO)C(O)C(O)C2O)c(-c2ccc(O)c(O)c2)oc2cc(O)cc(O)c12 (stereo not drawn)
    i | 0%

Next part.
Screens in order: Vaccinia mCherry | VACV Venus inh
> CCN(C(=O)Cn1c(=O)n(Cc2ccccc2)c(=O)c2c1c1cc(OC)ccc1n2C)c1ccccc1
    10% | 2%
> COc1ccc(-c2nnc(SCC(=O)Nc3ncc(C)s3)n2-c2ccccc2)cc1OC
    ? | ?
> COCCn1c(Cc2ccccc2)nnc1SCc1ccc([N+](=O)[O-])cc1
    -19% | -15%
> CN(Cc1cccc(Cl)c1Cl)C(=O)c1ccc(NC(=O)CC#N)cc1
    -11% | -16%
> Fc1ccc(Oc2nc(-c3ccccc3)nnc2C(F)(F)F)cc1
    . | 0%
> COc1cccc(-n2c(C)nc3c(cnn3-c3ccc(C)cc3)c2=O)c1
    -14% | -26%
> CN(Cc1c(C(=O)N(C)Cc2ccccc2)nc2ccccn12)CC1Cc2ccccc2O1 (stereo not drawn)
    -16% | -27%
> COC(=O)C1=C(c2ccc(-c3ccccc3)c(F)c2)C[C@@H]2CC[C@H]1N2C(=O)NCCc1ccccc1
    ? | ?
> COc1ccc(NC(=O)Cn2c(=O)n(-c3ccccc3)c(=O)c3c4c(sc32)CCCC4)c(OC)c1
    1% | -7%
> C[C@H](CO)N1C[C@H](C)[C@@H](CN(C)C(=O)NC2CCCCC2)Oc2ccc(NC(=O)Nc3ccccc3)cc2C1=O
    i | -9%
> CCOc1ccc(N(C)S(=O)(=O)c2csc(C(N)=O)c2)cc1
    -12% | -5%
> COc1ccc(NC(C)=O)cc1NC(=O)C1CCCN1C(=O)c1cccs1 (stereo not drawn)
    -12% | -12%
> Cc1[nH]nc2c1C(c1ccsc1)C(C#N)=C(N)O2 (stereo not drawn)
    . | -13%
> C[C@H](CO)N1C[C@H](C)[C@@H](CN(C)Cc2ccccc2)Oc2ccc(NC(=O)Cn3cnnn3)cc2C1=O
    -16% | -10%
> CC(=O)N1CCN(c2csc3ccc(Br)cc3c2=O)CC1
    1% | -10%

Four compounds drawn at random from those above, as already listed:
Screens in order: Vaccinia mCherry | VACV Venus inh
> CC(=O)N1CCN(c2csc3ccc(Br)cc3c2=O)CC1
    1% | -10%
> CN(Cc1cccc(Cl)c1Cl)C(=O)c1ccc(NC(=O)CC#N)cc1
    -11% | -16%
> C[C@H](CO)N1C[C@H](C)[C@@H](CN(C)Cc2ccccc2)Oc2ccc(NC(=O)Cn3cnnn3)cc2C1=O
    -16% | -10%
> CCOc1ccc(N(C)S(=O)(=O)c2csc(C(N)=O)c2)cc1
    -12% | -5%

Next part:
Molecule	Vaccinia mCherry	VACV Venus inh
COCCNC(=O)c1c(N)n(-c2cccc(C)c2)c2nc3ccccc3nc12	.	-13%
COc1cccc(OCc2cc(C(=O)N(C)Cc3nc(C)cs3)no2)c1	-25%	-9%
CCC(=O)Nc1ccc2c(c1)OC[C@@H](C)N(Cc1cccc(F)c1)C[C@@H](C)[C@@H](OC)CN(C)C2=O	-12%	-12%
O=C(CCCC1=NS(=O)(=O)c2ccccc2N1)N1CCN(c2ccc(Cl)cc2)CC1	-9%	-24%
CC(=O)Nc1cccc(NCC(=O)Nc2cc(S(=O)(=O)N3CCCCC3)ccc2Cl)c1	?	-13%
O=C1CCSc2ccc(Cl)cc2N1Cc1ccc(Cl)cc1	.	-10%
Nc1ccc(C(=O)Nc2ccc3cc(S(=O)(=O)O)ccc3c2)cc1	i	8%
CCCCNC(=O)C1CCC(CNS(=O)(=O)c2ccc(NC(C)=O)cc2)CC1 (stereo not drawn)	0%&-23%	1%&-20%
O=C(Cn1ncc2c1-c1ccccc1OC2)N1CCN(Cc2ccc3c(c2)OCO3)CC1	i	-7%
CCOc1ccccc1NC(=O)N1CCC(c2nc3ccc(C)cc3[nH]2)CC1	-24%	-23%
CC(=O)c1nc(N2CCN(S(=O)(=O)c3ccc(C)cc3)CC2)c2ccccc2n1	i	-16%
Cc1ccc(-c2cc(C(=O)NCC(c3ccccc3)N(C)C)c3ccccc3n2)o1 (stereo not drawn)	i	-6%
CC(C)(C)NC(=O)NC(=O)COC(=O)CCC1CCCCC1	-12%	-3%
CSc1nsc(SCC(=O)Nc2cccc(C(=O)O)c2)n1	-5%	2%
Brc1cccc[n+]1CCCC[n+]1ccccc1Br	i	-11%
O=C(NCc1ccccc1Cl)c1ccc2c(c1)ncn2-c1cccc(F)c1	-13%	-18%
C[C@H]1O[C@@H](O[C@H]2[C@@H](O)C[C@H](O[C@H]3[C@@H](O)C[C@H](O[C@H]4CC[C@@]5(C)[C@H](CC[C@@H]6[C@@H]5CC[C@]5(C)[C@@H](C7=CC(=O)OC7)CC[C@]65O)C4)O[C@@H]3C)O[C@@H]2C)C[C@H](O)[C@@H]1O	7.1µM*	0.089µM*
O=C(N/N=C/c1ccc([N+](=O)[O-])cc1)c1[nH]ncc1Br	-7%	-19%
COC(=O)c1cc(NC(=O)c2cccc(C(F)(F)F)c2)c(=O)oc1C/C=N/OCc1cccc(Cl)c1Cl	i	11%
CN(Cc1cnc2ccccn12)C(=O)c1cc(NC(=O)c2ccccc2)cc2ncn(C3CCCC3)c12	-13%	-15%
CSc1ccc(S(=O)(=O)Nc2ccc3c(c2)NC(=O)CC3)cc1	-22%	-20%
COc1ccccc1NS(=O)(=O)c1cc(N)ccc1N1CCOCC1	-23%	-13%
COC(=O)c1cnc(Oc2ccc(NC(=O)NC(=O)c3ccccc3Cl)cc2)cc1C(F)(F)F	i[7.34 µM]	-5%[7.34 µM]
COc1c2c(cc(O)c1C(C)=O)OC(C)(C)C=C2	i	-9%
CC(NC(=O)CSc1nnc(COc2ccccc2)o1)c1ccccc1 (stereo not drawn)	i	-21%
Cc1ccc(S(=O)(=O)Nc2cc(C(=O)Nc3cc(C)cc(C)c3)ccc2Cl)cc1	.	-8%
Brc1ccc(CSc2nnc(-c3cnccn3)n2Cc2ccco2)cc1	-10%	0%
Cc1cccc(-c2nn3c(=O)cc(CN4CCN(S(=O)(=O)c5ccc(Cl)cc5)CC4)nc3s2)c1	-11%	-11%
Nc1nc(NCC2CCCO2)nc(NCC2CCCO2)c1[N+](=O)[O-] (stereo not drawn)	i	-10%
